Bioassay records as filed in PubChem BioAssay.
RN4220 kill – kills Staphylococcus aureus RN4220; S. aureus RN4220 growth, OD600, 16 h; inhibition, % (no concentration beside the values); actives 0.33% (n = 330,000);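 active means z-score of -3 or lower and OD600 up to 0.18 on both plates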;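 further: plate controls were untreated cells for no effect and reference antibiotic for full effect; stock transfer was 100 nL into about 80 µL; one replicate is shown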
Mtb hypoxia inh – Mtb hypoxia fluorescent reporter inhibition. M. tuberculosis hypoxia-regulated fluorescent reporter, fluorescence. fluorescence inhibition, % (concentration not given with the values). actives 0.1% (n = 300,000);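 active means 35 to 45% if threefold the growth effect, above 45% if 1.5-fold the growth effect; inactive means the rest, general growth blockers included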;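 further: wells of about 50 µL received 100 nL stock; 0% = vehicle wells and 100% = reference inhibitor wells; whole bacteria with a GFP reporter of the hypoxia response; strong numbers were not always called active; many hits fall short of the cut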
BJeLR viability – BJeLR cell viability loss; BJeLR (HRASV12) viability, CellTiter-Glo ATP luminescence, 48 h; reference of the scale not given here; inhibition, % (test concentration not listed); actives 0.17% (n = 300,000);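 active means replicate mean above 50%; inconclusive means above 50% but judged a plate artefact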;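 further: 50 nL library stock added to about 25 µL; numbers are from one replicate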
Autofluor counter – flagged as autofluorescent in microsphere protease counterscreen; compound autofluorescence counterscreen, microsphere flow cytometry; hits give high values; fluorescence intensity (no concentration beside the values); actives 3.1% (n = 360,000);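 active means at least 3 SD above the mean of all compounds, about 16000 in these data; inconclusive means too few beads counted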;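 further: 100 nL of 1 mM stock went into each well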
PrP UTR inh – suppresses PrP 5' UTR mRNA reporter expression. cell-based PrP 5' UTR mRNA reporter, plate reader. inhibition, % (concentration not given with the values). actives 0.35% (n = 340,000). AID 488862;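 active means every replicate at 50% or more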;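 further: 0 = median of the neutral control wells; tested in H4 reporter cells; numbers are from one replicate; inactives centre near -14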
Sa ugtP lethal – kills S. aureus RN4220 lacking UgtP | S. aureus RN4220 ugtP deletion, OD600 growth, 16 h; some inactives read as strong as hits | growth inhibition, % (concentration not given with the values) | actives 0.54% (n = 330,000);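 active means z-score under -3 and OD600 up to 0.15 on both plates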;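 further: plate controls were untreated wells for no effect and antibiotic for full effect; wells of about 80 µL received 100 nL stock; the first replicate is given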
Mtb hypoxia inh growth – second read-out of Mtb hypoxia inh, no call of its own (marks repeat the call); growth inhibition, %; measured here: M. tuberculosis growth (absorbance);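 0% = vehicle and 100% = reference antibiotic; read after six days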
* hit, by the source's call; & = joins results of further samples. Not a hit list. Share with any hit: about 4%.

The opening 2 compounds as a preview:
`Cc1nc(SCC(N)=O)c([N+](=O)[O-])[nH]1` gave RN4220 kill 8.6, Mtb hypoxia inh 9, BJeLR viability 2, Autofluor counter 4755, PrP UTR inh -13, Sa ugtP lethal 4 and Mtb hypoxia inh growth 17.
CN1CCN(C(=O)c2cc3c(C(F)(F)F)nn(C)c3s2)CC1 was read as RN4220 kill -5.6, Mtb hypoxia inh 23, BJeLR viability -6, Autofluor counter 2966, PrP UTR inh -24, Sa ugtP lethal -5 and Mtb hypoxia inh growth 10.

All compounds of this part, repeating the preview:
`Cc1nc(SCC(N)=O)c([N+](=O)[O-])[nH]1` gave RN4220 kill 8.6, Mtb hypoxia inh 9, BJeLR viability 2, Autofluor counter 4755, PrP UTR inh -13, Sa ugtP lethal 4 and Mtb hypoxia inh growth 17.
CN1CCN(C(=O)c2cc3c(C(F)(F)F)nn(C)c3s2)CC1 was read as RN4220 kill -5.6, Mtb hypoxia inh 23, BJeLR viability -6, Autofluor counter 2966, PrP UTR inh -24, Sa ugtP lethal -5 and Mtb hypoxia inh growth 10.
Screening CCCN(C(=O)CSc1nnnn1-c1ccccc1OC)C1CCS(=O)(=O)C1 (stereo not given) returned RN4220 kill 2.2, Mtb hypoxia inh 1, BJeLR viability 1, Autofluor counter 6126, PrP UTR inh -3, Sa ugtP lethal 4 and Mtb hypoxia inh growth 0.
`CN(C)CCC(c1ccccc1)c1ccccn1` (stereo not given) gave RN4220 kill 1.2&2.5, Mtb hypoxia inh 3&1, BJeLR viability 3, Autofluor counter 6327&6049&5982, PrP UTR inh 4&-32&-20, Sa ugtP lethal 3&-3 and Mtb hypoxia inh growth 4&-2.
Screening COc1cccc(C2Oc3ccc(Br)cc3C(=O)C2OC(=O)NC2CCCC2)c1 (stereo not given) returned RN4220 kill -1.3, Mtb hypoxia inh 3, Sa ugtP lethal 11 and Mtb hypoxia inh growth 0.
`O=C(O)c1cc(-c2ccccn2)n[nH]1` gave RN4220 kill 3.0, Mtb hypoxia inh 18, BJeLR viability 1, Autofluor counter 22786*, PrP UTR inh -13, Sa ugtP lethal 5 and Mtb hypoxia inh growth 7.
COc1ccc(OC)c(NC(=O)CSc2nnc3ccc(-c4ccncc4)nn23)c1 was read as RN4220 kill 5.9, Mtb hypoxia inh -14, BJeLR viability 24, Autofluor counter 4499, PrP UTR inh -15, Sa ugtP lethal 1 and Mtb hypoxia inh growth 7.
Screening Cc1ccc(S(=O)(=O)N(C)c2ccc(C(=O)Nc3ccc(C)cn3)cc2)cc1 returned RN4220 kill 0.0, Mtb hypoxia inh 2, BJeLR viability 2, Autofluor counter inconclusive, PrP UTR inh -5, Sa ugtP lethal -14 and Mtb hypoxia inh growth 3.
For COc1cc2cc(CCCO)oc(=O)c2cc1OC the results were RN4220 kill -2.0, Mtb hypoxia inh 1, Autofluor counter 3696, PrP UTR inh -17, Sa ugtP lethal -11 and Mtb hypoxia inh growth 8.
CCOc1cccc(N(C(=O)Cc2cccs2)C(C(=O)NC2CCCCC2)c2cccn2C)c1 (stereo not given) was read as RN4220 kill 7.5, Mtb hypoxia inh 2, BJeLR viability -3, Autofluor counter 7613, PrP UTR inh -35, Sa ugtP lethal 8 and Mtb hypoxia inh growth 1.
O=C(Cc1ccc(Cl)cc1)NCCS(=O)c1ccc(Cl)cc1 (stereo not given) was read as RN4220 kill -4.0, BJeLR viability 1, Autofluor counter 2497, PrP UTR inh -22 and Sa ugtP lethal -7.
For O=C(CNC(=O)c1ccc(Cl)cc1Cl)OCC(=O)N1CCCC1=O the results were RN4220 kill 2.3, Mtb hypoxia inh 6, BJeLR viability -1, Autofluor counter 5416, PrP UTR inh 3, Sa ugtP lethal 4 and Mtb hypoxia inh growth 9.
For CCOC(=O)N1CCN(C(=O)CSc2nc3c([nH]c4ccccc43)c(=O)n2CC)CC1 the results were RN4220 kill -1.0, Mtb hypoxia inh -2, BJeLR viability 4, Autofluor counter 5773, PrP UTR inh -8, Sa ugtP lethal 4 and Mtb hypoxia inh growth 4.
CC(=O)OCC1=C(C(=O)O)N2C(=O)C(NC(=O)c3ccc(COc4ccc(Cl)cc4)o3)C2SC1 (stereo not given) was read as RN4220 kill 99*, Mtb hypoxia inh 11, BJeLR viability -2, Autofluor counter 3413, PrP UTR inh -13, Sa ugtP lethal 100* and Mtb hypoxia inh growth 9.
`O=C(c1ccco1)c1cn(Cc2ccc(Cl)cc2)c2ccccc12` gave RN4220 kill -2.3, Mtb hypoxia inh 17, BJeLR viability -2, Autofluor counter 2954, PrP UTR inh -24, Sa ugtP lethal -9 and Mtb hypoxia inh growth 11.

A stretch of the results above:
`O=C(O)c1cc(-c2ccccn2)n[nH]1` gave RN4220 kill 3.0, Mtb hypoxia inh 18, BJeLR viability 1, Autofluor counter 22786*, PrP UTR inh -13, Sa ugtP lethal 5 and Mtb hypoxia inh growth 7.
COc1ccc(OC)c(NC(=O)CSc2nnc3ccc(-c4ccncc4)nn23)c1 was read as RN4220 kill 5.9, Mtb hypoxia inh -14, BJeLR viability 24, Autofluor counter 4499, PrP UTR inh -15, Sa ugtP lethal 1 and Mtb hypoxia inh growth 7.

Later entries
For Cc1ccc(N(Cc2ccccc2O)C(=O)c2ccccc2F)cc1 the results were RN4220 kill 4.3, Mtb hypoxia inh 3, BJeLR viability 3, Autofluor counter 3696, PrP UTR inh 3, Sa ugtP lethal 9 and Mtb hypoxia inh growth -1.
For CCOc1ccc(OCC)c(NC(=O)CN2CCC(NC(=O)c3cccc(F)c3)CC2)c1 the results were RN4220 kill 0.9, Mtb hypoxia inh 4, BJeLR viability 0, Autofluor counter 20291*, PrP UTR inh -8, Sa ugtP lethal -7 and Mtb hypoxia inh growth 13.
`CCOC(=O)c1sc(NS(=O)(=O)c2ccc(C)cc2)nc1C` gave RN4220 kill 5.4, Mtb hypoxia inh 4, BJeLR viability 7, Autofluor counter 10894, PrP UTR inh -50, Sa ugtP lethal 3 and Mtb hypoxia inh growth 7.
`CCN1CCCC1CNS(=O)(=O)c1c(C)cc(C)cc1C` (stereo not given) gave RN4220 kill -3.0, Mtb hypoxia inh 0, BJeLR viability 14, Autofluor counter 3767, PrP UTR inh -15, Sa ugtP lethal 4 and Mtb hypoxia inh growth 1.
For Cc1ccccc1C(=O)N1CCC(C(=O)OCC(=O)Nc2cccc([N+](=O)[O-])c2C)CC1 the results were RN4220 kill 3.2, Mtb hypoxia inh -10, Autofluor counter 8741, PrP UTR inh 1, Sa ugtP lethal 3 and Mtb hypoxia inh growth 1.
For O=C(Nc1ccc(C(=O)N2CCOCC2)cc1)Nc1cccc(C(F)(F)F)c1 the results were RN4220 kill 1.9, Mtb hypoxia inh -6, BJeLR viability 3, Autofluor counter 6042, PrP UTR inh 24, Sa ugtP lethal -2 and Mtb hypoxia inh growth 12.
`Cc1ccc(-n2c3c(cc(C(=O)NC4CCSC4=O)c2=O)C(=O)CC(C)(C)C3)cc1` (stereo not given) gave RN4220 kill 3.4, Mtb hypoxia inh 2, BJeLR viability 4, Autofluor counter 10178, PrP UTR inh -16, Sa ugtP lethal 4 and Mtb hypoxia inh growth -1.
Screening O=C(CSc1nnc(Cc2ccccc2)o1)N1CCCc2ccccc21 returned RN4220 kill -0.8, Mtb hypoxia inh 7, BJeLR viability -7, Autofluor counter 8133, PrP UTR inh -22, Sa ugtP lethal -1 and Mtb hypoxia inh growth 3.
COc1ccc(CCNC(=O)C2CCN(S(=O)(=O)c3ccc4c(c3)oc(=O)n4C)CC2)cc1OC was read as RN4220 kill 1.9, Mtb hypoxia inh 5, BJeLR viability 3, Autofluor counter 5185, PrP UTR inh -10, Sa ugtP lethal 4 and Mtb hypoxia inh growth 0.
For CSc1ccccc1NC(=O)CSc1nnc(COc2ccccc2)o1 the results were RN4220 kill 1.4, Mtb hypoxia inh -2, BJeLR viability 4, Autofluor counter 4010, PrP UTR inh -42, Sa ugtP lethal 14 and Mtb hypoxia inh growth -2.
`NC(=O)c1sc2nc3c(c(-c4cccs4)c2c1N)CCCCC3` gave RN4220 kill -3.6, BJeLR viability 3, Autofluor counter 5662, PrP UTR inh 34 and Sa ugtP lethal 13.
Cc1ccc(C2c3c(oc4cc(C)c(C)cc4c3=O)C(=O)N2CCCN2CCOCC2)cc1 (stereo not given) was read as RN4220 kill 1.6, Mtb hypoxia inh 4, BJeLR viability -7, Autofluor counter 5918, PrP UTR inh 0, Sa ugtP lethal 4 and Mtb hypoxia inh growth 2.
Screening Cc1ccc(-c2nnn(CC(=O)N(c3ccccc3)C(C(=O)NC3CCCC3)c3ccncc3)n2)o1 (stereo not given) returned RN4220 kill 0.3, Mtb hypoxia inh 9, BJeLR viability 3, Autofluor counter 4084, PrP UTR inh -12, Sa ugtP lethal -5 and Mtb hypoxia inh growth -5.
Screening COc1cc(C=NNC(=O)C2=NNC(=O)C2C)ccc1O (stereo not given) returned RN4220 kill 2.2, Mtb hypoxia inh 1, Sa ugtP lethal 2 and Mtb hypoxia inh growth 1.
O=C(NCC1CCCO1)c1cccc(S(=O)(=O)Nc2cccc(C(F)(F)F)c2)c1 (stereo not given) was read as RN4220 kill 4.9, Mtb hypoxia inh 5, Autofluor counter 3883, PrP UTR inh 6, Sa ugtP lethal -4 and Mtb hypoxia inh growth 7.
CCOC1OC(C(=O)N2CCN(C)CC2)=CC(c2csc3ccccc23)C1CCCO (stereo not given) was read as RN4220 kill 2.5&6.8, Mtb hypoxia inh 8&10, Sa ugtP lethal -7&-2 and Mtb hypoxia inh growth 0&4.
Screening Cc1nn(CC(=O)Nc2ccccc2C(F)(F)F)c(=O)c2cccn12 returned RN4220 kill 2.9, Mtb hypoxia inh 7, BJeLR viability 17, Autofluor counter 5778, PrP UTR inh -6, Sa ugtP lethal 3 and Mtb hypoxia inh growth 4.
O=C(NCc1cccnc1)C1CCN(S(=O)(=O)c2cccnc2)CC1 was read as RN4220 kill 1.3, BJeLR viability 2, Autofluor counter 5997, PrP UTR inh -4 and Sa ugtP lethal 15.
For Cc1ccc(N2C(=O)[C@@H]3[C@H](C2=O)[C@H]2C=CC=NN2[C@@H]3C(=O)Nc2ccccc2)cc1 the results were RN4220 kill 5.2, Mtb hypoxia inh -2, BJeLR viability 7, Autofluor counter 4671, PrP UTR inh -8, Sa ugtP lethal 8 and Mtb hypoxia inh growth 5.
Screening COc1ccc(S(=O)(=O)NN(C)C)cc1N(C)S(=O)(=O)c1ccc(Cl)cc1 returned RN4220 kill 4.3, Mtb hypoxia inh 3, BJeLR viability 11, Autofluor counter 11105, PrP UTR inh -20, Sa ugtP lethal 7 and Mtb hypoxia inh growth -4.
For CCOc1ccc2ccccc2c1/C=N/NC(=O)c1ccc(C)nc1 the results were BJeLR viability 2, Autofluor counter 4009 and PrP UTR inh -9.
COc1ccccc1CN(C)C(=O)c1cnc(C)cn1 was read as RN4220 kill 3.3, Mtb hypoxia inh 12, BJeLR viability 4, Autofluor counter 3900, PrP UTR inh -27, Sa ugtP lethal 1 and Mtb hypoxia inh growth -4.
`O=C(O)c1cccc(NS(=O)(=O)c2ccc3c(c2)C(=O)c2ccccc2C3=O)c1` gave RN4220 kill 7.6, Mtb hypoxia inh -16, BJeLR viability -10, Autofluor counter 3786, PrP UTR inh -6, Sa ugtP lethal 2 and Mtb hypoxia inh growth -1.
OC(CNCC1CCCO1)COc1ccc(OCC(O)CNCC2CCCO2)cc1 (stereo not given) was read as RN4220 kill -2.6, Mtb hypoxia inh 18, BJeLR viability 6, Autofluor counter 2950, PrP UTR inh 4, Sa ugtP lethal 3 and Mtb hypoxia inh growth 8.
`CC(=O)NC(Cc1ccccc1)C(=O)NC(Cc1ccccc1)C(=O)O` (stereo not given) gave RN4220 kill 5.8, Mtb hypoxia inh 8, BJeLR viability 7, Autofluor counter 4204, PrP UTR inh -14, Sa ugtP lethal 3 and Mtb hypoxia inh growth 19.
`O=C(O)COc1ccc(C=NO)cc1Br` gave RN4220 kill -1.6, Mtb hypoxia inh 1, Sa ugtP lethal -7 and Mtb hypoxia inh growth 14.
`O=C(Cc1ccc(F)cc1)Nc1nnc(SCC(=O)N2CCCCC2)s1` gave BJeLR viability 1, Autofluor counter 3280 and PrP UTR inh -20.
For CCOC(=O)C1(Cc2cccc(OC)c2)CCN(Cc2ccc(OC)c(OC)c2)CC1 the results were RN4220 kill 0.3, Mtb hypoxia inh 11, BJeLR viability 4, Autofluor counter 4933, PrP UTR inh -10, Sa ugtP lethal 3 and Mtb hypoxia inh growth 11.
`Cc1ccc(C(=O)Nc2ccc3nccnc3c2)cc1` gave RN4220 kill 1.6, BJeLR viability 0, Autofluor counter 2736, PrP UTR inh -20 and Sa ugtP lethal 0.
